Bead autofluor: compound fluorescence in toxin protease inhibitor counterscreen; compound autofluorescence counterscreen, microsphere flow cytometry; hits give high values; fluorescence intensity (no concentration beside the values); 360,000 compounds, 3.1% hits; AID 624483;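 active = at least 3 SD above the mean of all compounds, about 16000 in these data; inconclusive = too few beads counted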;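 also: 100 nL of 1 mM stock went into each well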
Mtb hypoxia inh: inhibitors of hypoxia-regulated fluorescent reporter in Mycobacterium tuberculosis; M. tuberculosis hypoxia-regulated fluorescent reporter, fluorescence; fluorescence inhibition, % (test concentration not listed); 300,000 compounds, 0.1% hits; AID 1159583;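 active = 35 to 45% if threefold the growth effect, above 45% if 1.5-fold the growth effect; inactive = the rest, general growth blockers included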;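 also: wells of about 50 µL received 100 nL stock; 0% = vehicle wells and 100% = reference inhibitor wells; whole bacteria with a GFP reporter of the hypoxia response; strong numbers were not always called active; many hits fall short of the cut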
BJeLR viability: kills HRASV12-expressing BJeLR cells; BJeLR (HRASV12) viability, CellTiter-Glo ATP luminescence, 48 h; reference of the scale not given here; inhibition, % (concentration not given with the values); 300,000 compounds, 0.17% hits; AID 1554;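 active = replicate mean above 50%; inconclusive = above 50% but judged a plate artefact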;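 also: 50 nL library stock added to about 25 µL; numbers are from one replicate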
PrP UTR inh: suppresses PrP 5' UTR mRNA reporter expression. cell-based PrP 5' UTR mRNA reporter, plate reader. 340,000 compounds, 0.35% hits. inhibition, % (test concentration not listed);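 active = every replicate at 50% or more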;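 also: 0 = median of the neutral control wells; tested in H4 reporter cells; numbers are from one replicate; inactives centre near -14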
ugtP null kill: compounds lethal to S. aureus RN4220 ugtP deletion mutant. growth inhibition, % (concentration not given with the values). AID 1259309. 330,000 compounds, 0.54% hits. OD600 growth, 16 h; some inactives read as strong as hits;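 active = z-score under -3 and OD600 up to 0.15 on both plates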;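 also: plate controls were untreated wells for no effect and antibiotic for full effect; wells of about 80 µL received 100 nL stock; the first replicate is given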
RN4220 kill: kills Staphylococcus aureus RN4220; 330,000 compounds, 0.33% hits; inhibition, % (test concentration not listed); S. aureus RN4220 growth, OD600, 16 h; AID 1259311;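 active = z-score of -3 or lower and OD600 up to 0.18 on both plates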;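 also: plate controls were untreated cells for no effect and reference antibiotic for full effect; stock transfer was 100 nL into about 80 µL; one replicate is shown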
Mtb hypoxia inh growth: second read-out of Mtb hypoxia inh, no call of its own (marks repeat the call); growth inhibition, %; measured here: M. tuberculosis growth (absorbance);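 0% = vehicle and 100% = reference antibiotic; read after six days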
* marks the source's active call; other numbers are inactive results; ? = inconclusive; / = not tested or not shown; & = joins results of further samples. Compounds as they come (roughly 4.1% active in at least one column).

SMILES	Bead autofluor	Mtb hypoxia inh	Mtb hypoxia inh growth	BJeLR viability	PrP UTR inh	ugtP null kill	RN4220 kill
COc1ccc(CCNC(=O)COC(=O)Cc2ccccc2F)cc1	3744	-0.3	4.7	/	-9.3	-5.3	-0.6
Cc1ccc(-c2nnn(CC(=O)N(c3ccccc3)C(C(=O)NC(C)(C)C)c3cccs3)n2)o1 (stereo not given)	3275	/	/	-1.1	-25.8	7.6	0.4
Cc1ccc(CN2CCN(Cc3ccccc3-c3ccco3)CC2CCO)o1 (stereo not given)	3564	14.8	2.9	-8.1	-11.3	4.1	-0.3
CN1C(=O)/C(=C\c2ccccc2F)Sc2ccc(C(=O)NC3CCN(Cc4ccccc4)CC3)cc21	5978	/	/	20.2	-24.6	/	/
CCOC(=O)C1=C(c2cccc(F)c2)NC(=S)NC1C (stereo not given)	3068	/	/	-4.7	-10.1	11.4	1.2
CCOC(=O)c1ccc(Nc2ccc(-c3ccc(OC)c(OC)c3)nn2)cc1	15246	-0.6	15.5	8.3	-3.8	-3.7	2.5
COc1ccccc1CCNC(=O)c1cc(C2CC2)nc2c1cnn2C(C)C	5209	9.8	-4.9	/	-18.9	8.7	-1.7
Cc1ccc(C)c(N=C2CCCN2Cc2ccccc2)c1C#N	7324	13.9	4.6	-8.4	-7.9	25.7	6.9
O=C1NC(=O)/C(=C\c2cn(Cc3ccccc3F)c3ccccc23)N1	3730	13.4	14.0	6.9	-10.5	3.3	-6.8
COc1cccc(-c2nnc(-c3ccc(C(F)(F)F)cc3)o2)c1	9591	-5.8	-0.6	0.4	-42.7	-12.7	1.3
Cc1nc(SCC(=O)Nc2cc(C)on2)c2c3c(sc2n1)CCCC3	7750	/	/	-4.8	-65.7	4.7	10.1
COc1cc(C2CC(=O)Oc3cc4c(cc32)OCO4)cc(OC)c1OC (stereo not given)	2893	4.2	5.2	/	-13.1	8.2	2.8
COc1ccccc1C1=NOC(C)(c2nnc(-c3cccc(Cl)c3)o2)C1 (stereo not given)	2898	8.5	7.6	5.8	-18.4	-13.2	6.5
Cc1cc(C(F)(F)F)cc(NNC(=O)NC(=O)c2ccc(Cl)cc2)n1	3393	4.6	3.0	1.3	-0.6	6.1	4.5
CNC(=O)COC(=O)c1ccc2c(c1)S(=O)(=O)c1ccccc1C2=O	3449	14.2	6.7	-7.1	-15.9	0.7	6.4
Cc1cc(Cl)ccc1OCCCC(=O)Nc1cccnc1	4861	/	/	-4.6	-11.9	-4.2	-5.7
COc1ccc(CCNC(=O)c2cc(-c3ccccc3)c(N3CCOCC3)s2)c(OC)c1OC	5552	-1.2	3.9	2.4	-21.5	-0.2	0.4
COc1cc2c(cc1NC(=O)C(C)N1CCN(S(=O)(=O)c3ccccc3[N+](=O)[O-])CC1)oc1ccccc12 (stereo not given)	16091	-1.3	-6.4	-10.2	-7.2	12.3	3.5
Cc1ccc(C(C(=O)NCCc2ccccc2)N(C(=O)c2csnn2)C2CC2)cc1 (stereo not given)	3640	0.9	-1.3	9.6	-22.2	0.3	8.0
Cc1c(Cl)c(C(=O)NC2C3CC4CC(C3)CC2C4)nn1C (stereo not given)	21785*	-7.2	1.1	-2.0	-0.7	-11.9	5.1
Cc1nc2ccccc2cc1C(=O)NN=Cc1ccccc1[N+](=O)[O-]	/	2.4	4.7	/	/	0.6	3.3
Cc1c(NC(=O)COC(=O)c2cc(-c3cccc4ccccc34)nc3ccccc23)c(=O)n(-c2ccccc2)n1C	2212	/	/	-10.9	-3.3	/	/
Cc1ccc(CCNC(=O)CS(=O)Cc2nc(-c3cccc(C)c3)oc2C)cc1 (stereo not given)	5897	7.7	4.7	6.9	-19.4	-2.5	-0.3
Cc1ccc2[nH]c(=O)c(CN(Cc3nnnn3C3CCCC3)C3CCCCC3)cc2c1	6052	-1.0	6.0	-2.3	17.2	0.5	2.0
NC(=O)CSc1nc2sc3c(c2c2ncnn12)CCCC3	4733	/	/	-13.5	-14.4	9.8	-1.2
O=[N+]([O-])c1ccc(N2CCNCC2)cc1NCc1cccnc1	2085	8.4	2.3	-2.2	-4.2	3.1	4.0
CCn1c(CNC(=O)c2cccc(C)c2)nnc1SCC(=O)NC1=NCCS1	2982	3.2	-4.8	10.1	-14.0	1.1	3.5
CC1CCN(S(=O)(=O)c2ccc(NC(=O)CN3CCN(C)CC3)cc2)CC1	10030	2.7	0.5	-4.2	-8.3	10.6	5.3
COc1ccc(Nc2ncc3c(n2)CC(c2ccccc2)CC3=O)cc1 (stereo not given)	10774	7.9	9.5	6.6	-10.6	-6.4	6.6
CC(C)C[C@H](NC(=O)c1cc2cc(Cl)ccc2n1C)C(=O)N1CCC(C(=O)O)CC1	3152	-3.5	-3.9	-4.5	-28.6	1.7	-2.6
Cc1ccc(C)n1-c1ccc(N2CCOCC2)c([N+](=O)[O-])c1	4189	-6.7	15.9	-2.1	-28.9	0.4	-1.0
CCN(CC)c1ccc(NC(=O)COc2ccccc2C)cc1S(=O)(=O)Nc1ccccc1OC	2513	-8.1	1.8	4.9	-5.6	-2.0	2.3
Cc1cc(NC(=O)CSCC(=O)N2CCN(c3cccc(C(F)(F)F)c3)CC2)no1	?	-0.4	0.5	-10.6	5.5	-1.9	-0.2
Cc1ccc(-c2nn(-c3ccccc3)cc2/C=N/n2c(-c3ccncc3)n[nH]c2=S)cc1	6364	/	/	0.3	-47.9	/	/
CSC(=NS(=O)(=O)c1ccc(N)cc1)NS(=O)(=O)c1cccs1	4125	8.5&17.5	-5.9&14.6	/	-17.2	1.6&-3.4	2.1&-6.0
COC(=O)c1nc2nc(-c3cccs3)cc(C(F)(F)F)n2n1	2058	5.6	2.3	-14.1	-11.1	4.6	-0.2
CCN(CC)C(=O)C(=O)Nc1ccc(Oc2ccccc2)cc1	4328	10.2	2.5	-1.0	-28.8	14.1	6.4
COc1ccc(CNC(=O)c2cc(S(=O)(=O)N3CCOCC3)cn2C)cc1	4405	-1.4	-8.9	2.6	9.4	8.6	-3.3
COc1cc(-c2nn3c(C4CCCCC4)nnc3s2)cc(OC)c1OC	2912	22.0	15.6	7.6	-8.0	-10.3	10.6
CC(C)CCn1nnnc1C(c1ccc(N(C)C)cc1)N1CCN(C(=O)c2ccco2)CC1 (stereo not given)	4225	/	/	-15.6	-7.2	-0.1	1.8
Cc1onc(-c2c(Cl)cccc2Cl)c1C(N)=NOC(=O)N(C)C	/	16.0	10.7	/	/	7.5	3.3
CC1CCN(CC(O)COc2ccc(-c3ccccc3)cc2)CC1 (stereo not given)	3984	4.2	-1.1	-6.7	-1.5	3.3	1.2
Cc1nn(C(=O)CCC(=O)NCc2ccc(OC(C)C)cc2)c2ccccc12	4434	-3.3	9.0	-3.6	10.4	0.5	1.9
c1ccc(-c2csc(N3CCN(c4ccccn4)CC3)n2)cc1	8097	17.5	3.6	6.0	-59.2	27.5	3.9
CN(CC(=O)Nc1ccc(F)cc1)CC(=O)N1CCCC1	3653	14.9	0.1	/	-11.4	9.1	3.8
CC(C)(C)C1CCC(OC(=O)CN2CCOCC2)CC1 (stereo not given)	4318	-3.1	5.1	-2.5	-25.4	-3.6	-5.0
O=C(CCC1CCCN(C(=O)c2ccc3c(c2)OCO3)C1)N1CCN(c2ccccn2)CC1 (stereo not given)	3418	5.9	9.0	-5.1	-45.9	3.8	4.1
CCCc1nc(S(=O)(=O)Cc2ccc(Cl)cc2Cl)n[nH]1	17841*	4.0	6.5	-4.3	-15.6	-1.0	4.3
Cc1ccc(N2C(=O)C3CC(c4ccccc4)=C4C5C=CC(C6C(=O)N(c7ccc(C)cc7C)C(=O)C56)C4C3C2=O)c(C)c1 (stereo not given)	3549	-3.7	3.6	0.3	-11.2	-10.0	3.5
COc1ccc(Cl)cc1NC(=O)CSc1nnc(COc2ccccc2)n1N	2816	4.3	11.8	2.4	0.4	0.2	2.5
CN(C)CCN1C(=O)C(=O)/C(=C(/O)c2ccc(S(=O)(=O)N3CCOCC3)cc2)C1c1ccc(Br)cc1 (stereo not given)	4398	5.8	23.3	0.7	-6.1	7.3	4.3
CCOCCCNC(=O)CSc1nc2nc(C)c(Cc3ccccc3)c(C)n2n1	4367	2.0	-1.2	-6.1	-4.3	2.6	2.8
COC(=O)c1cc(COc2ccc3ccc(=O)oc3c2)c(C)o1	3391	1.4	2.7	-2.9	-9.5	-7.0	-3.7
Cc1oc(/N=C/c2ccc(O)cc2O)c(C#N)c1C	2556	/	/	-0.6	-10.9	/	/
CCN(CC)C(=N)C(C#N)=NNc1ccc(C)cc1	/	6.4	8.0	/	/	3.0	3.8
O=C(Cn1cc(C(=O)c2ccco2)c2ccccc21)Nc1ccccc1	2610	9.4	11.4	0.1	-6.0	-9.2	21.4
Cc1nnc2ccc(N3CCN(c4ccccn4)CC3)nn12	5824	10.7	4.3	10.1	-1.8	-6.0	2.8
CC(CC(=O)Nc1ccccn1)=NNC(=O)c1cnccn1	/	-3.2	-0.7	/	/	6.2	1.8
COc1ccc(CC(NC(C)=O)C(=O)NC2CCN(C(=O)C3CC3)CC2)cc1OC (stereo not given)	4197	7.1	2.0	7.1	5.3	-1.4	1.6
CCOC(=O)N1CCN(C(=O)c2ccc3c(=O)n(-c4ccc(OC)cc4OC)c(=S)[nH]c3c2)CC1	4794	/	/	8.0	-18.5	-2.8	1.7
Following part:
SMILES	Bead autofluor	Mtb hypoxia inh	Mtb hypoxia inh growth	BJeLR viability	PrP UTR inh	ugtP null kill	RN4220 kill
CCCC[N+]12CCC(CC1)C(C(=O)c1cccs1)C2 (stereo not given)	2741	/	/	-3.7	-20.8	7.4	6.2
COc1ccc(N/C=C\C(=O)c2ccc3c(c2)OCO3)cc1OC	2167	1.8	10.1	-21.0	-66.0	-0.4	4.7
CCN(c1cc(C)cc(C)c1)S(=O)(=O)c1nnc(NC(=O)c2ccco2)s1	5211	12.8	3.8	4.0	-20.1	21.2	22.6
O=[N+]([O-])c1ccc(Cl)c(CN2CCCCCC2)c1	3067	-2.3	-2.5	8.8	-9.3	5.5	-0.3
Cc1ccc(OCC(=O)NN=C2CCOc3c(C)cccc32)cc1	/	4.8	3.2	/	/	-4.6	-1.7
CCOC(=O)[C@]12Cc3cc(OC)ccc3C1N(Cc1ccccc1)C(=O)c1cc(F)c(F)cc12 (stereo not given in full)	/	5.6	10.3	/	/	-13.6	-10.4
Clc1cccc(Cl)c1CNc1ccc(N2CCCC2)cc1	/	-12.0	-3.7	2.5	/	-3.3	-1.3
COc1ccc(/C=N/N=C2/NC(=O)C(CC(=O)O)S2)cc1OCc1ccc(Cl)cc1Cl (stereo not given)	2193	/	/	7.3	-2.3	/	/

A stretch of the results above, as a working copy:
SMILES	Bead autofluor	Mtb hypoxia inh	Mtb hypoxia inh growth	BJeLR viability	PrP UTR inh	ugtP null kill	RN4220 kill
COc1ccc(CCNC(=O)COC(=O)Cc2ccccc2F)cc1	3744	-0.3	4.7	/	-9.3	-5.3	-0.6
Cc1ccc(-c2nnn(CC(=O)N(c3ccccc3)C(C(=O)NC(C)(C)C)c3cccs3)n2)o1 (stereo not given)	3275	/	/	-1.1	-25.8	7.6	0.4
Cc1ccc(CN2CCN(Cc3ccccc3-c3ccco3)CC2CCO)o1 (stereo not given)	3564	14.8	2.9	-8.1	-11.3	4.1	-0.3
CN1C(=O)/C(=C\c2ccccc2F)Sc2ccc(C(=O)NC3CCN(Cc4ccccc4)CC3)cc21	5978	/	/	20.2	-24.6	/	/
CCOC(=O)C1=C(c2cccc(F)c2)NC(=S)NC1C (stereo not given)	3068	/	/	-4.7	-10.1	11.4	1.2
CCOC(=O)c1ccc(Nc2ccc(-c3ccc(OC)c(OC)c3)nn2)cc1	15246	-0.6	15.5	8.3	-3.8	-3.7	2.5
COc1ccccc1CCNC(=O)c1cc(C2CC2)nc2c1cnn2C(C)C	5209	9.8	-4.9	/	-18.9	8.7	-1.7
Cc1ccc(C)c(N=C2CCCN2Cc2ccccc2)c1C#N	7324	13.9	4.6	-8.4	-7.9	25.7	6.9
O=C1NC(=O)/C(=C\c2cn(Cc3ccccc3F)c3ccccc23)N1	3730	13.4	14.0	6.9	-10.5	3.3	-6.8
COc1cccc(-c2nnc(-c3ccc(C(F)(F)F)cc3)o2)c1	9591	-5.8	-0.6	0.4	-42.7	-12.7	1.3
